Rce1 inhib: blocks yeast Ras-converting enzyme; Q03530; yeast membranes, quenched prenylated peptide cleavage fluorescence; calls only; 0.27% of 290,000 active; AID 2563;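 active = fall in fluorescence gain of 50% or more versus controls, with final raw signal at or below 3038400; inconclusive = same 50% fall but final raw signal above 3038400; inactive = fall in fluorescence gain under 50%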;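 note: plate controls were neutral control wells for no effect and wells lacking membranes for full effect; tested at 10 µM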
Target sequence (Q03530 whole entry, looked up): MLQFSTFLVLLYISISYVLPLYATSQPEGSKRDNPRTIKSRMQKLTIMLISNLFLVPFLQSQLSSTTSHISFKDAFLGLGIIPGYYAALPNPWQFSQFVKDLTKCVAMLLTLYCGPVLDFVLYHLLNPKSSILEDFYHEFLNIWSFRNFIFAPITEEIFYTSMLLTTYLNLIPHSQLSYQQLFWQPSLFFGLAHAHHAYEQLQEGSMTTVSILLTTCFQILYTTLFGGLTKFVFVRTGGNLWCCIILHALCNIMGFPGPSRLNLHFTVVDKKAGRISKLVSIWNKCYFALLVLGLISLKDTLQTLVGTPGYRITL
Yeast UUG start: alters start codon recognition fidelity in yeast; S. cerevisiae UUG-firefly luciferase reporter, luminescence/redox ratio; activity score, % at 18.7 µM; 0.13% of 350,000 active;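 active = replicate mean at a twofold rise or more, about +100% in these data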;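 note: firefly luciferase made from a UUG start codon reports start codon fidelity; reporter light over untreated wells divided by growth signal over untreated wells; some hits fall short of that in this replicate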
CSC inhib: blocks cancer stem cells; 1.1% of 300,000 active; AID 2717; cancer stem cell-like cells viability, luminescence; inhibition, % at 7.5 µM;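 active = mean at 75% or more and at least half the replicates too; inconclusive = mean and replicates disagree; tested in HMLE shEcad cells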;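 note: 0% = median of negative and 100% = median of positive control wells; the first replicate is given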
MT1-MMP act inh: inhibitors of human MT1-MMP activation; AID 651647; P50281; HT1080 RFP-PRO-GFP cells, GFP/RFP ratio fluorescence, overnight; percent of plate control window, DMSO zero; 0.061% of 360,000 active; GFP/RFP ratio change, % at 20 µM;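 active = GFP/RFP ratio change of at least 30% with cell ATP level not reduced by more than half and red fluorescence within 50% of control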; note: strong numbers were not always called active
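Assay system – RFP-PRO-GFP reporter HT1080 cells · Compound dosing – single dose of 20 µM compound, 1% DMSO final · Incubation – overnight compound exposure at 37 °C · Measure – GFP/RFP fluorescence ratio · Benchmarks – DMSO wells and RFP-L50D-GFP cells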
eIF4H inh: inhibitors of RNA binding by human eIF4H. Q15056. eIF4H fluorescence polarization binding assay. inhibition, % at 35 µM. 0.94% of 290,000 active;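 active = 50% or more with normal probe brightness, or confirmed in later tests; inconclusive = above 50% with abnormal brightness, or retests that disagree; inactive = below 50% or failed in later tests; about a fifth of its hits are not listed in these tables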;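 note: calls also rest on retests at 20 µM and on dose response follow-up; 0% = protein and probe with vehicle and 100% = probe without protein; strong numbers were not always called active; many hits fall short of the cut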
PABP FP inh: blocks human PABP binding to poly(A) RNA. fluorescence polarization. inhibition, % at 35 µM. 1% of 290,000 active. AID 2014;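 active = 50% or more with normal probe brightness, or confirmed in later tests; inconclusive = above 50% with abnormal brightness, or retests that disagree; inactive = below 50% or failed in later tests; about a fifth of its hits are not listed in these tables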;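 note: calls also rest on retests at 20 µM and on dose response follow-up; controls were probe without protein and protein plus probe with vehicle; some compounds called inactive have numbers as strong as hits; many hits fall short of the cut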
Target sequence (P11940 whole entry, looked up): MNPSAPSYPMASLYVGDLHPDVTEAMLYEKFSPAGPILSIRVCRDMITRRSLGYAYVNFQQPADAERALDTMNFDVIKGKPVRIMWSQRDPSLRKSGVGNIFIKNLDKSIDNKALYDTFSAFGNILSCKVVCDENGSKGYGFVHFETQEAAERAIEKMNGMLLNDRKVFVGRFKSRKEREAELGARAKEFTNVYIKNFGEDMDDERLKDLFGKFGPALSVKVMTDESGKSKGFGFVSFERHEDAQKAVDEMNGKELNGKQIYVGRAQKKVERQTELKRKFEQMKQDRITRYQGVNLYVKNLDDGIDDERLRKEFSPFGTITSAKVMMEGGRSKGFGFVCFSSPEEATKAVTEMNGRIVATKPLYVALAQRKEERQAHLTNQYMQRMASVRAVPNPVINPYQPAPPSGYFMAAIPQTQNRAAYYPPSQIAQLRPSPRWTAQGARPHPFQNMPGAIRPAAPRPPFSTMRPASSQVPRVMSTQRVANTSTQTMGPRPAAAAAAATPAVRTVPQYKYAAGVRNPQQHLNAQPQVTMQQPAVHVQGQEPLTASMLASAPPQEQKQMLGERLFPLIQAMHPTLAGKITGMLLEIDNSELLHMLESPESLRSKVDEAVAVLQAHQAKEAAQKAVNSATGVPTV
HIV Env fusion: HIV envelope-mediated fusion inhibition. HeLa-JRFL Env/CEM21 cell fusion, luciferase. inhibition, % at 12.3 µM. 1.1% of 360,000 active;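 active = mean replicate inhibition score of at least 50 and every replicate individually at or above 50; inconclusive = only one of the two criteria met; inactive = mean below 50 and not all replicates reaching 50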;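 note: 0% = plate neutral controls and 100% = maraviroc near 300 nM; one replicate is shown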
eIF4H inh retest: further read-out of eIF4H inh, marked with its call; inhibition, %; compound at 20 µM; confirmation average;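 mean of two retest wells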
PABP FP inh retest: also measured in PABP FP inh; calls as there; inhibition, %; compound at 20 µM; confirmation repeats;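 mean of two retest wells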
MT1-MMP act inh RFP: second read-out of MT1-MMP act inh, no call of its own (marks repeat the call); RFP signal change, %; measured here: RFP expression control read;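 0 = vehicle wells; hits needed this value within 50% of zero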
Starred values were filed as active, the others as inactive; i = inactive; ? = inconclusive; / = no result given.

SMILES | Rce1 inhib | Yeast UUG start | CSC inhib | MT1-MMP act inh | MT1-MMP act inh RFP | eIF4H inh | PABP FP inh | HIV Env fusion | others
COc1ccc(C2(CNC(=O)/C=C\c3ccco3)CCCC2)cc1OC | i | 11.2 | 1.5 | 0.8 | 2.5 | -10.5 | -2.9 | -45.1
Cc1ccc(C(=O)Oc2cccnc2)cc1[N+](=O)[O-] | / | / | 2.6 | 4.5 | -3.0 | -9.1 | -7.6 | -20.2
CCN1CCN(C(CNS(=O)(=O)c2ccc(C)cc2)c2ccccc2)CC1 (stereo not drawn) | i | -12.5 | / | 4.5 | 3.6 | -2.2 | 4.1 | 25.9
CCN(C[C@H]1N[C@@](C)(C(=O)OC)[C@H]2C(=O)N(C)C(=O)[C@@H]12)C(=O)Nc1ccc(C(F)(F)F)cc1 | / | -12.1 | / | -1.2 | -0.1 | / | / | 6.8
CCCC1=C(C(=O)OCC)C(c2ccco2)C(C#N)=C(N)O1 (stereo not drawn) | i | -7.8 | -4.4 | -4.8 | -0.2 | 14.1 | -7.1 | 12.1
COc1cc2nc(CN3CCOCC3)n(CC(=O)NCC(F)(F)F)c(=O)c2cc1OC | i | -15.7 | 1.1 | 1.7 | 4.0 | -5.4 | -2.0 | 7.7
NC(=O)C1CCN(C(=O)/C(=C/c2ccccc2)NC(=O)c2ccccc2)CC1 | i | 1.2 | / | -2.4 | 2.5 | -0.3 | -4.2 | -24.3
COc1ccc(Br)cc1C(=O)NC(=S)Nc1cc(-c2nc3ccccc3[nH]2)ccc1C | i | -24.3 | 86.6* | -5.2 | -0.7 | -2.6 | 22.0 | -4.7
Cc1ccc(NC(=O)C2C3C=CC4(O3)C2C(=O)N(CCCN2CCOCC2)C4C(=O)NC2CCCCC2)cc1Cl (stereo not drawn) | / | 3.6 | -13.9 | -1.8 | 2.4 | 0.6 | 4.1 | 0.0
CC1(C)CC(=O)C=C(NCc2ccncc2)C1 | i | -25.1 | -7.0 | 0.1 | 1.3 | 7.5 | 8.1 | -5.0
CCCC1=Nc2cc(C(=O)N3CCC(C(N)=O)CC3)ccc2Sc2ccccc21 | i | -4.8 | -5.8 | 2.2 | 6.5 | -12.9 | 7.7 | 1.2
C=CCNCCCCOc1c(Cl)cc(C)cc1Br | i | -17.5 | 30.1 | -4.6 | -6.0 | -13.3 | -0.3 | -115.8
O=C(Nc1cc(=O)[nH]c(=O)[nH]1)c1cc(Cl)ccc1Cl | i | -18.0 | 49.8 | 0.4 | -11.0 | / | / | -277.0
COCCSc1nnc(NC(=O)C2CC(=O)N(c3ccccc3)C2)s1 (stereo not drawn) | i | / | -15.8 | 1.2 | -0.1 | -0.8 | -3.7 | 8.4
CCCCC1=NN(C(=O)c2ccncc2)C(O)(C(F)(F)F)C1 (stereo not drawn) | i | -16.0 | -11.1 | -1.1 | 2.2 | -0.8 | 7.4 | 8.4
Cc1cccc(OCCn2nc(C(=O)O)c3ccccc3c2=O)c1 | i | 0.9 | 4.5 | 0.9 | -2.0 | -5.8 | -10.8 | /
C#CCOCCOCCOCCNc1nc(N2CCN(C(=O)[C@H]([C@@H](C)CC)n3cc([C@@H](N)Cc4ccc(O)cc4)nn3)CC2)nc(N2CCN(C(=O)[C@H](Cc3cc4ccccc4[nH]3)n3cc([C@@H](N)CC(C)C)nn3)CC2)n1 | / | 14.1 | 5.6 | -0.4 | 3.4 | / | / | /
CC(Sc1nnc(N)s1)C(=O)Nc1nccs1 (stereo not drawn) | i | -11.6 | -12.5 | -2.0 | 1.5 | 104.5 | 1.4 | 8.7 | eIF4H inh retest=-1.8;PABP FP inh retest=6.4
Cc1cc2oc(C(=O)Nc3ccc(S(=O)(=O)Nc4onc(C)c4C)cc3)cc(=O)c2cc1Cl | / | 9.2 | -7.2 | -2.2 | 2.0 | 4.2 | 16.3 | -1.5
COc1ccc(-n2nnnc2SCC(=O)Nc2ccc3c(c2)OCCO3)c(OC)c1 | i | / | -7.2 | 8.1 | -6.8 | -1.5 | 0.7 | /

The closing two entries of the part before lead into the next.
SMILES | Rce1 inhib | Yeast UUG start | CSC inhib | MT1-MMP act inh | MT1-MMP act inh RFP | eIF4H inh | PABP FP inh | HIV Env fusion | others
Cc1cc2oc(C(=O)Nc3ccc(S(=O)(=O)Nc4onc(C)c4C)cc3)cc(=O)c2cc1Cl | / | 9.2 | -7.2 | -2.2 | 2.0 | 4.2 | 16.3 | -1.5
COc1ccc(-n2nnnc2SCC(=O)Nc2ccc3c(c2)OCCO3)c(OC)c1 | i | / | -7.2 | 8.1 | -6.8 | -1.5 | 0.7 | /
CCOc1ccccc1C(=O)NCC(=O)Nc1ncccc1C | i | -9.2 | 2.0 | -1.0 | 1.7 | / | / | /
COc1cc(/C=N/NC(=O)c2cc(O)cc(O)c2)ccc1OC(=O)c1ccccc1 | i | -6.4 | -12.0 | 0.7 | 1.8 | 81.4* | 93.9* | -11.5
O=C(COC(=O)c1cccs1)Nc1nnc(-c2ccccc2)o1 | i | / | 6.6 | -2.0 | 3.2 | / | / | -2.7
C=CCn1c(=S)[nH]c2cc(C(=O)Nc3ccc(OC)c(OC)c3)ccc2c1=O | / | -15.1 | -11.3 | 3.9 | 1.3 | -11.1 | -5.1 | 10.3
Cc1ccc(NC(=O)c2cc(=O)[nH]c3ccccc23)cc1C | i | -23.1 | / | 0.0 | -2.9 | 2.8 | 9.6 | 0.4
COc1ccc(Cc2nc3ccc(C(=O)NCC4COCCO4)cc3o2)cc1 (stereo not drawn) | i | 5.0 | 4.7 | 5.6 | -1.9 | -1.0 | -3.9 | -1.6
O=C(O)c1ncsc1-c1ccccc1 | i | / | -14.1 | 0.1 | 1.6 | 2.4 | 2.0 | 14.9
Nc1c(C(=O)NCc2ccco2)c2nc3ccccc3nc2n1CCc1ccccc1 | i | / | / | -22.7 | 7.2 | 9.1 | -6.4 | 19.3
Cn1c(=O)c2[nH]cnc2n(-c2ccccc2)c1=O | i | -22.4 | -1.9 | 4.9 | 7.9 | 4.0 | -13.4 | /
Cc1ccc(NS(=O)(=O)c2c(C(=O)N3CCCCCC3)c(C)n(C)c2C)cc1C | i | -2.7 | 0.5 | -0.2 | 2.4 | -6.3 | -1.7 | 5.9

Random excerpt: 2 entries already listed, in no set order.
SMILES | Rce1 inhib | Yeast UUG start | CSC inhib | MT1-MMP act inh | MT1-MMP act inh RFP | eIF4H inh | PABP FP inh | HIV Env fusion | others
C=CCn1c(=S)[nH]c2cc(C(=O)Nc3ccc(OC)c(OC)c3)ccc2c1=O | / | -15.1 | -11.3 | 3.9 | 1.3 | -11.1 | -5.1 | 10.3
COc1cc(/C=N/NC(=O)c2cc(O)cc(O)c2)ccc1OC(=O)c1ccccc1 | i | -6.4 | -12.0 | 0.7 | 1.8 | 81.4* | 93.9* | -11.5

New compounds follow:
SMILES | Rce1 inhib | Yeast UUG start | CSC inhib | MT1-MMP act inh | MT1-MMP act inh RFP | eIF4H inh | PABP FP inh | HIV Env fusion | others
O=C(Cc1ccccc1)N1CCC(C(=O)N2CCN(c3ccc(F)cc3)CC2)CC1 | i | 6.1 | -12.7 | 5.6 | 2.1 | -5.4 | 1.0 | /
Cc1ccc(C(=O)O)cc1S(=O)(=O)N1CCCC1 | i | -14.9 | -7.0 | -6.0 | -0.7 | -9.0 | 16.7 | -60.2
Cc1ccc(NC(=S)N(CCCN2CCOCC2)Cc2cccs2)c(C)c1 | i | -14.2 | 5.0 | 2.1 | -0.1 | 4.0 | 2.9 | /
CCn1c(Cc2ccccc2)nnc1SC(C)C(=O)NC1CC1 (stereo not drawn) | i | -14.1 | / | -0.9 | 3.4 | / | / | 6.9
Cc1cc(=O)oc2cc(NC(=O)CCC(=O)O)ccc12 | ? | -10.6 | -9.8 | 1.3 | 6.7 | 4.0 | 1.1 | -9.8
COC(=O)c1sc(N)c(C(=O)OC)c1CSc1nnnn1C | i | -16.9 | 5.0 | 3.0 | 5.5 | -4.8 | -10.4 | /
COc1ccccc1NC(=O)c1ccc2c(c1)CCN2S(C)(=O)=O | i | -1.5 | -11.2 | -2.1 | -4.4 | 3.5 | -13.6 | 0.5
COc1cc(C(=O)N2CCN(c3ccccc3)CC2)c([N+](=O)[O-])cc1OC | i | -7.8 | -7.4 | -2.3 | -0.5 | -8.6 | -10.1 | -7.4
Cc1cc(F)ccc1S(=O)(=O)N1CCCOC1CNC(=O)C(=O)NCCCN1CCOCC1 (stereo not drawn) | i | 2.7 | 1.0 | -0.7 | -0.4 | -11.3 | 17.6 | 2.9
CC(C)(C)OC(=O)N/N=C/c1cccn1-c1ccc([N+](=O)[O-])cc1 | i | 0.6 | -2.5 | 1.3 | -3.7 | 1.0 | 1.1 | 30.6
O=C(COc1ccc(Cl)cc1)NCCCNC(=O)c1cccnc1 | i | -5.9 | / | 0.8 | 0.1 | -2.8 | -2.1 | 4.8
Nc1nc(Cl)nc2c1ncn2[C@@H]1O[C@H](CO)[C@@H](O)[C@H]1O | i | -20.5 | -8.8 | -6.3 | 2.6 | -2.2 | 7.9 | 5.2
Cc1cc(C(=O)OCC(=O)c2cccs2)c2ccccc2n1 | i | / | / | 0.2 | 4.3 | 0.3 | 0.1 | -4.3
CCOc1ccc(NC(=O)CCN2C(=S)NC(C)(C)CC2C)cc1 (stereo not drawn) | i | / | 2.6 | 4.3 | -0.9 | 5.7* | 75.1* | -5.6 | eIF4H inh retest=100.5*;PABP FP inh retest=96.8*
Cc1cc(Nc2ccc(F)c(Cl)c2)n2ncnc2n1 | i | -18.4 | 3.8 | 1.8 | -1.6 | -18.2 | -0.8 | -33.9
O=C1CCC(c2ccc3ccccc3c2)O1 (stereo not drawn) | / | -4.5 | / | 6.3 | 5.0 | / | / | -23.8
CC(C)(C)OC(=O)n1cc(CCO)c2ccccc21 | / | -18.6 | 14.1 | -0.2 | 2.6 | / | / | -96.7
COC(=O)c1ccc(C2NC(=O)c3ccccc3O2)cc1 (stereo not drawn) | i | -13.2 | -7.6 | -0.9 | -1.8 | 3.3 | 5.1 | 8.9
Nc1nnc(Sc2ncccc2[N+](=O)[O-])s1 | i | -20.4 | -13.4 | 1.3 | -1.7 | -2.4 | 5.8 | 13.6
COc1ccc2nc(NC(=O)C3CCCN(S(=O)(=O)c4c(C)noc4C)C3)sc2c1 (stereo not drawn) | i | 17.7 | 10.4 | -1.2 | -5.1 | -10.0 | -11.1 | 11.9
COc1ccc(C)cc1S(=O)(=O)N(C)CC(=O)NC1CCCCC1 | i | -8.5 | / | -0.4 | -2.1 | -10.3 | -2.5 | /
COc1ccccc1NS(=O)(=O)c1cc(C(=O)N2CCN(C/C=C/c3ccccc3)CC2)ccc1C | i | -9.3 | 6.8 | -2.0 | -11.4 | -4.1 | 12.6 | /
CCn1cc([N+](=O)[O-])c(C(=O)Nc2cc(C)on2)n1 | i | 1.5 | 0.6 | 1.2 | 5.7 | -0.6 | 0.2 | /
COc1cc(/C=N/N=C(/N)c2nonc2N)cc(Br)c1OCc1cccc(C)c1 | i | -4.3 | 26.5 | -4.9 | -9.8 | 1.2 | -4.7 | 35.6
COc1ccccc1C(=O)Nc1nc2cc3c(cc2s1)OCCO3 | i | -4.8 | 48.7 | 6.2 | 1.6 | -8.9 | -1.8 | /
CCCCC(=O)NC(=S)NNC(=O)CC | i | -16.3 | 1.5 | 0.9 | 1.1 | -5.4 | 5.0 | 3.3
Cc1ncoc1C(=O)NCCC(c1ccccc1)c1ccccc1 | i | / | -7.3 | 1.5 | -6.5 | -8.6 | ? | 8.1
CCN(CCNC(=O)CN1CCN(Cc2ccc(Cl)cc2)C1=O)c1ccccc1 | i | -13.8 | -14.1 | 9.6 | -1.8 | -6.9 | 0.3 | /

Only part of the results is shown, so the mix of outcomes need not match the whole.
